# eIF4H inh = inhibitors of RNA binding by human eIF4H; inhibition, % at 35 µM; actives 0.94% (n = 290,000); Q15056; eIF4H fluorescence polarization binding assay; AID 2012;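 active = 50% or more with normal probe brightness, or confirmed in later tests; inconclusive = above 50% with abnormal brightness, or retests that disagree; inactive = below 50% or failed in later tests; about a fifth of its hits are not listed in these tables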;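 also: calls also rest on retests at 20 µM and on dose response follow-up; 0% = protein and probe with vehicle and 100% = probe without protein; strong numbers were not always called active; many hits fall short of the cut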
# PABP polyA inh = PABP-poly(A) binding inhibition. inhibition, % at 35 µM. PABP-poly(A) RNA binding, fluorescence polarization. actives 1% (n = 290,000). P11940;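 active = 50% or more with normal probe brightness, or confirmed in later tests; inconclusive = above 50% with abnormal brightness, or retests that disagree; inactive = below 50% or failed in later tests; about a fifth of its hits are not listed in these tables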;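 also: calls also rest on retests at 20 µM and on dose response follow-up; controls were probe without protein and protein plus probe with vehicle; some compounds called inactive have numbers as strong as hits; many hits fall short of the cut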
# CSC inhib = blocks cancer stem cells; inhibition, % at 7.5 µM; cancer stem cell-like cells viability, luminescence; actives 1.1% (n = 300,000);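 active = mean at 75% or more and at least half the replicates too; inconclusive = mean and replicates disagree; tested in HMLE shEcad cells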;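 also: 0% = median of negative and 100% = median of positive control wells; the first replicate is given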
# Rce1 inhib = inhibitors of yeast Ras-converting enzyme; actives 0.27% (n = 290,000); Q03530; calls only; yeast membranes, quenched prenylated peptide cleavage fluorescence;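 active = fall in fluorescence gain of 50% or more versus controls, with final raw signal at or below 3038400; inconclusive = same 50% fall but final raw signal above 3038400; inactive = fall in fluorescence gain under 50%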;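 also: plate controls were neutral control wells for no effect and wells lacking membranes for full effect; tested at 10 µM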
# Target sequence (Q03530 whole entry, looked up): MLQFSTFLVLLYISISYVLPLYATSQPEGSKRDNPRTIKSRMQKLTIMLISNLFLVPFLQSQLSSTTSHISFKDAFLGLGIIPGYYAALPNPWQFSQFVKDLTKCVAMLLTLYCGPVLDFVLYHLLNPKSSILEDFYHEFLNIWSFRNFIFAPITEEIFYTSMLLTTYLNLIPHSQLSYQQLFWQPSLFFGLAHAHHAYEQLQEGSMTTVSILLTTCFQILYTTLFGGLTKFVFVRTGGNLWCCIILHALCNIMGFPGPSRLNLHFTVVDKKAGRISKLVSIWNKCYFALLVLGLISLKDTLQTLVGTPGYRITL
# MT1-MMP act inh = MT1-MMP (human) activation inhibition; P50281; HT1080 RFP-PRO-GFP cells, GFP/RFP ratio fluorescence, overnight; percent of plate control window, DMSO zero; GFP/RFP ratio change, % at 20 µM; actives 0.061% (n = 360,000);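 active = GFP/RFP ratio change of at least 30% with cell ATP level not reduced by more than half and red fluorescence within 50% of control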; also: strong numbers were not always called active
#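 Material – HT1080 RFP-PRO-GFP cells · Control set – DMSO wells and RFP-L50D-GFP cells · Incubation – overnight cell settling, then overnight compound exposure, 37 °C, 5% CO2 · Compound dosing – single-point 20 µM compound, 1% DMSO · Read-out – GFP/RFP fluorescence ratio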
# Env fusion inh = blocks HIV Env-driven cell-cell fusion; HeLa-JRFL Env/CEM21 cell fusion, luciferase; actives 1.1% (n = 360,000); inhibition, % at 12.3 µM;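 active = mean replicate inhibition score of at least 50 and every replicate individually at or above 50; inconclusive = only one of the two criteria met; inactive = mean below 50 and not all replicates reaching 50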;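 also: 0% = plate neutral controls and 100% = maraviroc near 300 nM; one replicate is shown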
# UUG fidelity = alters start codon recognition fidelity in yeast. S. cerevisiae UUG-firefly luciferase reporter, luminescence/redox ratio. activity score, % at 18.7 µM. actives 0.13% (n = 350,000). AID 602363;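 active = replicate mean at a twofold rise or more, about +100% in these data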;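 also: firefly luciferase made from a UUG start codon reports start codon fidelity; reporter light over untreated wells divided by growth signal over untreated wells; some hits fall short of that in this replicate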
# eIF4H inh retest = further read-out of eIF4H inh, marked with its call; inhibition, %; compound at 20 µM; confirmation average;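 mean of two retest wells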
# PABP polyA inh retest = further read-out of PABP polyA inh, marked with its call; inhibition, %; compound at 20 µM; confirmation repeats;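 mean of two retest wells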
# MT1-MMP act inh RFP = further read-out of MT1-MMP act inh, marked with its call; RFP signal change, %; measured here: RFP expression control read;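 0 = vehicle wells; hits needed this value within 50% of zero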
# * hit, by the source's call; i = inactive; ? = inconclusive; / = no result given; + = active, no number; & = joins results of further samples; [ ] = dose if it differs, or a comment. Only part of the results is shown. The share of hits here may be higher or lower than overall.
SMILES,eIF4H inh,PABP polyA inh,CSC inhib,Rce1 inhib,MT1-MMP act inh,MT1-MMP act inh RFP,Env fusion inh,UUG fidelity,others
O=C(Cc1coc(-c2ccc(F)cc2)n1)NC1CCCCC1,-1,0,-5,i,0,1,/,-11,
CC(=O)NC/C(C)=N\Nc1ccc([N+](=O)[O-])cc1,-5,0,21,i,-59,6,0,/,
CCC(C(=O)NCCc1ccc(S(N)(=O)=O)cc1)c1ccccc1 (stereo unspecified),/,/,-7,i,1,3,17,-9,
O=C(COC(=O)c1ccccc1)Nc1cc(S(=O)(=O)N2CCCCCC2)ccc1Cl,/,/,/,/,2,-4,0,-11,
Cc1ccc(CC(=O)Nc2ccc(S(=O)(=O)N3CCOCC3)cc2)cc1,8,-1,-9,i,1,4,10,-1,
Oc1c(C(c2cccs2)N2CCOCC2)sc2ncnn12 (stereo unspecified),11,-6,0,i,-4,-2,-31,11,
COc1cccc(NC(=O)CSc2nnc(-c3cccs3)n2C)c1,-12,0,2,i,4,2,/,-19,
O=C(COc1cc2oc(=O)c3c(c2cc1Cl)CCC3)Nc1ccc(CN2CCOCC2)cc1,1,-17,15,i,2,-3,-11,-16,
COc1cc(NC(=O)C/C(C)=N/NC(=O)C(=O)NC2CCCCC2)c(OC)cc1Cl,3,-5,-17,i,-1,4,7,/,
CC(Cl)C(=O)Nc1ncc(C(F)(F)F)cc1Cl (stereo unspecified),-4,21,-3,i,-1,2,-11,-12,
CS(=O)(=O)c1cccc(-c2csc(N3CCC(C(N)=O)CC3)n2)c1,/,/,-10,/,6,-7,/,-16,
CCN1CCN(Cc2c(O)ccc3c(=O)c(-c4ccc(OC)c(OC)c4)c(C(F)(F)F)oc23)CC1,-5,7,6,i,-4,-1,-20,-19,
O=c1[nH]cc(N(CCO)CCO)c(=O)[nH]1,0,6,-11,i,1,2,8,/,
Cc1ccc2nc(N(CCCN(C)C)C(=O)CN3C(=O)c4ccccc4C3=O)sc2c1,-15,-11,-12,i,-3,2,10,/,
O=C(Nc1nc2ccc(F)cc2s1)C1=NN(c2ccccc2)C(=O)CC1,2,-19,/,i,4,0,6,/,
COc1ccccc1NS(=O)(=O)c1cccc(C(=O)NNC(=O)c2ccc(Cl)nc2)c1,/,/,/,/,8,-10,30,-2,
CCOC(=O)CC(NC(=O)c1cccs1)c1ccc(C)cc1 (stereo unspecified),-4,-12,12,i,4,-2,16,0,
O=[N+]([O-])/C=C/c1cc2ccccc2[nH]1,6,-3,5,i,-3,-4,0,10,
COc1ccc(/C=C/c2nc3ccccc3n2C)cc1,-10,?,88*,+,1,-1,43,-84,
COc1ccc(-c2nc(SCC(=O)NC3CCCC3)c(-c3ccc(OC)cc3)[nH]2)cc1,8,16,6,i,/,/,10,-17,
CCN1CCN(C(=O)CN(Cc2ccccc2)S(C)(=O)=O)CC1,-1,-11,-3,i,1,4,-36,-21,
COc1ccc(NC(=O)C(CC(C)C)NC(=O)C2CCC(C)CC2)cc1 (stereo unspecified),-6,-3,14,i,-8,-7,8,-26,
CCC(C(=O)O)N1C(=O)C2CCCCC2C1=O (stereo unspecified),-4,-6,-23,i,6,5,6,-4,
O=C(c1ccc(Cl)s1)N1CCN(S(=O)(=O)c2ccc(Cl)cc2)CC1,/,/,10,/,-1,-1,0,/,
COCCOC(=O)C1=C(C)NC(=O)NC1c1ccc(-c2ccc(F)cc2)o1 (stereo unspecified),4,9,0,i,-1,-4,-8,/,
COCCNC(=O)c1ccc2c(c1)C(=O)c1ccccc1-2,-11,5,-1,i,1,3,14,-9,
CC(=O)c1ccc(S(=O)(=O)Oc2ccc(-c3ccc(C(=O)O)cc3)cc2)cc1,6,0,-8,i,-1,-2,9,-2,
COc1ccccc1S(=O)(=O)N1CCC(C(=O)O)(c2ccccc2)CC1,-5,12,6,i,0,0,-2,-4,
COC(=O)CCN(C(C)=O)c1ccc(N)cc1,-7,-2,7,i,1,7,/,-12,
COCCn1c(SCC(=O)c2c(N)n(C3CC3)c(=O)[nH]c2=O)nc2ccccc21,/,/,-9,/,5,1,1,-16,
CCC(Sc1nc(N)cc(=O)[nH]1)C(=O)Nc1cc(C)on1 (stereo unspecified),2,3,-18,i,5,2,17,-12,
COC(=O)c1ccc(Cn2nc([N+](=O)[O-])c(Br)c2C)cc1,-3,-12,2,i,2,0,-7,/,
Cc1ccc(CNc2nc3ccccc3n2C)o1,-5,-1,-16,i,-1,2,-89,-18,
Cc1cccc(NC(=O)CSc2nnc(-c3ccccc3)n2N)c1,-3,0,-9,i,2,3,-6,-17,
CO/N=C/C(=N\Nc1cc(OC)cc(OC)c1)C(=O)c1ccccc1,-3,-18,9,i,-4,-3,-12,/,
COc1ccc(S(=O)(=O)NC2CC(C)(C)NC(C)(C)C2)c2ccccc12,-4,6,-6,i,-4,-1,-18,-11,
CCN(CC)S(=O)(=O)c1ccc(F)c(C(=O)OC2CC(C)OC2=O)c1 (stereo unspecified),-2,-3,8,i,-3,3,2,1,
CC(/C=N/NC(=O)c1nnn(-c2nonc2N)c1CN1CCCCC1)=C\c1ccccc1,6,14,12,i,4,-2,30,-6,
Cc1ccc(NC(=O)c2ccc(Nc3c([N+](=O)[O-])cc([N+](=O)[O-])cc3[N+](=O)[O-])cc2)cc1,0,-3,41,i,13,-18,-35,/,
O=C(O)c1ccccc1NC1CCCCC1NS(=O)(=O)c1ccccc1 (stereo unspecified),2,13,/,i,-2,1,5,-22,
Nc1cc(=O)n(Cc2ccco2)c(=S)[nH]1,/,/,/,/,0,-1,8,-20,
CN(C)c1ccc(/C=N/NC(=O)c2ccccc2)cc1,-2,-2,13,i,4,5,-56,-15,
O=C(c1ccco1)N1CCN(c2ccc([N+](=O)[O-])c(N3CCOCC3)c2)CC1,-7,-2,-9,i,4,1,-1,/,
CCOC(=O)c1ccc(NC(=S)N2CCN(CCN=CC3=C(O)CC(C)(C)CC3=O)CC2)cc1,-9,6,-11,i,0,3,13,/,
CN(C)c1ccc(-c2ccnc3c2CC(C)(C(=O)NCc2ccco2)O3)cc1 (stereo unspecified),/,/,/,/,-7,-21,25,-23,

# Random excerpt: 2 entries already listed.
SMILES,eIF4H inh,PABP polyA inh,CSC inhib,Rce1 inhib,MT1-MMP act inh,MT1-MMP act inh RFP,Env fusion inh,UUG fidelity,others
CN(C)c1ccc(/C=N/NC(=O)c2ccccc2)cc1,-2,-2,13,i,4,5,-56,-15,
Nc1cc(=O)n(Cc2ccco2)c(=S)[nH]1,/,/,/,/,0,-1,8,-20,

# (continued)
SMILES,eIF4H inh,PABP polyA inh,CSC inhib,Rce1 inhib,MT1-MMP act inh,MT1-MMP act inh RFP,Env fusion inh,UUG fidelity,others
Cc1nc(Cl)cc(N/N=C/c2ccccc2)n1,-4,-2,-14,i,8,-3,-27,-26,
FC(F)Oc1ccc(-n2cc(-c3ccccc3)[n+]3c2CCCCC3)cc1,1,-6,-13,i,0,-16,3,/,
COc1ccc(C(=O)Nc2nnc(CC(=O)N/N=C/c3ccc(O)cc3O)s2)cc1,76*,8,43,i,-52,2,11,/,eIF4H inh retest=72*;PABP polyA inh retest=11
CN(C)C1(CNC(=S)Nc2ccccc2C(F)(F)F)CCCCC1,4,-2,-6,i,-1,3,8,/,
COc1ccc(OCC(=O)N2CCCC(Nc3ccc(C)c(C)c3)C2)cc1 (stereo unspecified),/,/,/,/,4,6,19,-1,
Cc1ccc(N(CC(=O)NCc2ccccn2)S(=O)(=O)c2ccccc2)cc1C,-2,-3,1,i,0,0,0,-5,
N#Cc1c2c(c(-c3ccccc3Cl)[nH]c1=S)CCCC2,2,-7,/,/,0,1,3,/,
O=S1(=O)CC(NCc2ccccc2)C(Nc2ccccc2)C1 (stereo unspecified),8,13,-7,i,4,1,/,-6,
C[C@H](CO)N1C[C@H](C)[C@@H](CN(C)S(C)(=O)=O)Oc2ccc(NC(=O)C3CC3)cc2C1=O,/,/,/,/,1,6,-51[16.7 µM],-11&-25,
CCN1C(=O)CSC1=NC1C2CC3CC(C2)CC1C3 (stereo unspecified),-2,14,4,i,-7,-10,/,/,
Cc1nc2cc(NC(=O)C3(C)CCCN(C(C)C)C3)ccc2o1 (stereo unspecified),/,/,/,/,2,2,-16,-10,
Fc1ccc(COc2ccc(Br)cc2CNCC2CCCO2)cc1 (stereo unspecified),1,21,0,i,2,1,-15,-19,
O=C(NNC(=O)c1cc2ccccc2cc1O)NC1CCCCC1,-4,2,7,i,6,4,-45,-13,
O=C(NCCN1CCCCC1)Nc1cccc(C(F)(F)F)c1,4,7,-9,i,3,4,-37,-6,
CC(Sc1n[nH]c(-c2ccccc2)n1)C(=O)c1c(N)n(C)c(=O)n(C)c1=O (stereo unspecified),/,/,-9,i,5,1,0,-23,
Nc1ccn([C@@H]2O[C@H](CNCc3cccc4c3sc3ccccc34)[C@@H](O)[C@H]2O)c(=O)n1,/,/,/,/,2,3,-37,-4,
CC1(C)CCC[C@]2(C)[C@H]3Cc4cc(O)ccc4O[C@]3(C)CC[C@@H]12,/,/,130*,/,0,0,-2,-7,
C=CCNc1nc(-c2ccccc2)c(C(=O)OCC)cc1C#N,2,-3,28,i,-12,-14,/,-6,
Cc1nc2cc3c(cc2c(C)c1C(=O)OC(C)C)OCO3,-10,-14,8,i,2,-2,-17,-24,
Clc1ccc(-c2nc3cnccn3c2Nc2ccc3c(c2)OCO3)cc1,-6,-14,-14,i,5,-9,-23,0,
CC(=O)NC1C(Oc2ccccc2C)OC(CO)C(O)C1O (stereo unspecified),1,-6,-6,i,2,6,8,-13,
CCCN(CCC)S(=O)(=O)c1ccc(C(=O)Nc2c(C)n(C)n(-c3ccccc3)c2=O)cc1,0,-14,-10,i,3,-2,5,0,
CC1CCc2c(sc3ncnc(SCC(=O)c4ccccc4)c23)C1 (stereo unspecified),-2,48,5,i,0,4,/,5,
Cc1ccc(SC[C@H](c2ccccc2)N2CCN(C)CCC2=O)cc1,-6,2,/,i,-1,5,-49,-11,

# In the list so far, 9 have a Cl atom:
SMILES,eIF4H inh,PABP polyA inh,CSC inhib,Rce1 inhib,MT1-MMP act inh,MT1-MMP act inh RFP,Env fusion inh,UUG fidelity,others
O=C(COC(=O)c1ccccc1)Nc1cc(S(=O)(=O)N2CCCCCC2)ccc1Cl,/,/,/,/,2,-4,0,-11,
O=C(COc1cc2oc(=O)c3c(c2cc1Cl)CCC3)Nc1ccc(CN2CCOCC2)cc1,1,-17,15,i,2,-3,-11,-16,
COc1cc(NC(=O)C/C(C)=N/NC(=O)C(=O)NC2CCCCC2)c(OC)cc1Cl,3,-5,-17,i,-1,4,7,/,
CC(Cl)C(=O)Nc1ncc(C(F)(F)F)cc1Cl (stereo unspecified),-4,21,-3,i,-1,2,-11,-12,
COc1ccccc1NS(=O)(=O)c1cccc(C(=O)NNC(=O)c2ccc(Cl)nc2)c1,/,/,/,/,8,-10,30,-2,
O=C(c1ccc(Cl)s1)N1CCN(S(=O)(=O)c2ccc(Cl)cc2)CC1,/,/,10,/,-1,-1,0,/,
Cc1nc(Cl)cc(N/N=C/c2ccccc2)n1,-4,-2,-14,i,8,-3,-27,-26,
N#Cc1c2c(c(-c3ccccc3Cl)[nH]c1=S)CCCC2,2,-7,/,/,0,1,3,/,
Clc1ccc(-c2nc3cnccn3c2Nc2ccc3c(c2)OCO3)cc1,-6,-14,-14,i,5,-9,-23,0,
